# Assay outcomes: PubChem BioAssay, several laboratories
# FGF22 binding: binders of recombinant human FGF22 by thermal shift; Q9HCT0; AID 651658; calls only at 9.99 µM; SYPRO orange fluorescence; percent of sucrose octasulfate shift, DMSO zero; actives 1.5% (n = 340,000);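 active = melting point raised past a set limit in the mean and every replicate; inconclusive = no clear call; three in four hits are not shown here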
# Target sequence (Q9HCT0 whole entry, looked up): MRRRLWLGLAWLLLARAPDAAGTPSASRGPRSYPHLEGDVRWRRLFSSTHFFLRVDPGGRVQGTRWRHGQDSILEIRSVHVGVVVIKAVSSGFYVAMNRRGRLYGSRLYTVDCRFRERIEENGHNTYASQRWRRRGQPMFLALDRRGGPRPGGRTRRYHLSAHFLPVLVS
# E coli growth: E. coli growth inhibition. Escherichia coli growth, OD600, 23 h; hits give low values. OD600 absorbance (no concentration beside the values). actives 0.21% (n = 330,000). AID 1053175;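 active = OD600 absorbance below the run mean of sample wells minus 3.6 SD, in any replicate, cut at about 0.56 in these data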;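 also: stock transfer was 300 nL into about 60 µL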
# MLL AF4-AF9 inh: blocks AF4 peptide binding to human AF9 | AlphaScreen, biotin-AF4 peptide binding to FLAG-AF9 | P42568 | inhibition, % at 10 µM | actives 0.47% (n = 350,000);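 active = every replicate reaching a set inhibition limit, whatever the replicate mean, cut at about 25% in these data; inconclusive = mean inhibition reaches that limit but some replicates miss it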;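 also: 0% = plate neutral control median and 100% = total signal loss; the record names both 10 and 1 µM as test concentration; the first replicate is given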
# UCH37 DUB inh: human UCH37 deubiquitinating enzyme inhibition; purified proteasome/UCH37, Ub-AMC cleavage fluorescence; inhibition, % (no concentration beside the values); actives 0.33% (n = 330,000); AID 588478;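 active = mean of two replicates above 20%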;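 also: 0% = compound-free wells with enzyme and 100% = wells lacking proteasome; stock transfer was 100 nL into about 20 µL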
# Target sequence (Q9Y5K5 whole entry, looked up): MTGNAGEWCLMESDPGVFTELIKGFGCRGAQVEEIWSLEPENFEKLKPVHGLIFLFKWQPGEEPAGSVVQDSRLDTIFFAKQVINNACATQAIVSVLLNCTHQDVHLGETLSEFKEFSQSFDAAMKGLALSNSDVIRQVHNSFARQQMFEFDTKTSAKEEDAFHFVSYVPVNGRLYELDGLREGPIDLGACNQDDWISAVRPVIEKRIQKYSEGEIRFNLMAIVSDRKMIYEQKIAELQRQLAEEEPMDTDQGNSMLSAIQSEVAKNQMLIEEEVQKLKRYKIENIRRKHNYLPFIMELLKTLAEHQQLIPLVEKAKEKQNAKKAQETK
#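 Material: human UCH37 enzyme supplied as purified proteasome complex / Amount: 0.15 nM proteasome as dispensed / Buffer or medium: pH 7.4 Tris-HCl (50 mM) with ovalbumin, ATP-MgCl2, DTT / Times: preincubation 30 min, reaction 25 min, room temperature / Technique: AMC fluorescence from Ub-AMC cleavage, excitation 355 nm, emission 460 nm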
# RanGTP-Impb inh: disruptors of Ran-importin-beta complex formation – biochemical, FRET, CFP-Ran, YFP-importin-beta, homogeneous, primary screen; inhibition, % (concentration not given with the values); cell-free CFP-Ran/YFP-importin-beta FRET ratio; actives 1.1% (n = 300,000);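 active = most replicates above 15%; inconclusive = exactly half above 15%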;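 also: 0% = DMSO wells and 100% = Ran loaded with GDP instead of GTP; wells of about 40 µL received 100 nL stock; the first replicate is given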
# Vif A3G: inhibitors of Vif binding to APOBEC3G peptide, primary screen, biochemical, TR-FRET, GST-Vif 1-94, biotin-A3G peptide, dose response retest (AID 1117319); inhibition, %; hits with a dose series show IC50 in µM; TR-FRET GST-Vif / biotin-A3G peptide binding; higher % means a stronger effect; test concentration not given here; strong numbers were not always called active; actives 0.57% (n = 260,000);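 active = above the screen mean plus three standard deviations and confirmed in dose response; inconclusive = results disagree or hit not tested in dose response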;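 also: Vif residues 1-94 fused to GST binding biotinylated APOBEC3G peptide 110-148; 0% = full assay without inhibitor and 100% = GST in place of GST-Vif; retest series ran down from 100 µM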
# HNF4A DNA FP: change in binding of human HNF4 alpha to DNA | HNF4a-FITC DNA binding, fluorescence polarization, 1 h | activity change, % at 10 µM | actives 0.3% (n = 360,000); in the data active = activity change above about 30%, passing the limit was not always enough;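 also: controls were the assay level and a saturating level of protein; the project sought stronger binding though the title names inhibitors; some compounds called inactive have numbers as strong as hits; positive values seem to mean higher polarization but the record does not say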
# Target sequence (P41235 whole entry, looked up): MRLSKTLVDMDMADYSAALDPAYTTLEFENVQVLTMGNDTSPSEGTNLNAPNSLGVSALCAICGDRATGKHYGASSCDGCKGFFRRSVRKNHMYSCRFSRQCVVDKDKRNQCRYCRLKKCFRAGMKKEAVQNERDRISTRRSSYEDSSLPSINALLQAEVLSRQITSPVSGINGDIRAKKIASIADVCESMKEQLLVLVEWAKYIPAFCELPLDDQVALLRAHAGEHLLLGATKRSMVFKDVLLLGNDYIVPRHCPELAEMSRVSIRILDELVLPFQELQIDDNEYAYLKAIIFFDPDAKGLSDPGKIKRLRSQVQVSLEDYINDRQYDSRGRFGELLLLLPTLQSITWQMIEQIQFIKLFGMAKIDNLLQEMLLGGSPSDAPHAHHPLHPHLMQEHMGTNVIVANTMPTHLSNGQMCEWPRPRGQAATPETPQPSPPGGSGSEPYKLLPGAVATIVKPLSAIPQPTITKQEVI
# * hit, by the source's call; i = inactive; ? = inconclusive; nt = not tested or not shown; & = joins results of further samples. A portion of the library; count on the stated rates, not on these rows.
SMILES,FGF22 binding,E coli growth,MLL AF4-AF9 inh,UCH37 DUB inh,RanGTP-Impb inh,Vif A3G,HNF4A DNA FP
O=C(Oc1cccc(-n2cnnn2)c1)c1ccccc1Cl,i,0.72,-0.7,4.3,1.6,3%,-0.9
O=C(NCc1ccc(Cl)cc1)N1CCN(S(=O)(=O)c2ccccc2)CC1,i,0.72,-0.4,1.4,2.9,-11%,-5.6
O=C(NC(=S)N(Cc1ccccc1)Cc1ccccc1)C1CCCCC1,nt,0.75,nt,4.3,2.4,?,-2.5
Cc1cccc(C)c1NC(=O)CNC(=O)C12CC3CC(CC(O)(C3)C1)C2,i,0.62,8.1,2.3,5.1,0%,-1.1
O=C(Nc1ccccn1)c1onc2c1CCCC2,nt,0.68,nt,2.8,1.8,-2%,-0.7
Nc1c(N(CCC2=CCCCC2)C(=O)COc2ccc(F)cc2Cl)c(=O)[nH]c(=O)n1Cc1ccccc1,i,0.69,-1.0,6.6,nt,nt,6.2
CC1Cc2ccccc2N1CC(=O)Nc1ccc(S(N)(=O)=O)cc1 (stereo unspecified),i,0.69,3.0,2.8,4.9,nt,-5.5
CC1=[N+]([O-])C(C)(C)C(c2ccc(Br)cc2)=[N+]1[O-],nt,0.65,nt,12,-0.1,-4%,1.9
CC(=O)N1CCCN(Cc2cn(-c3cc(C)ccc3C)nc2-c2ccccc2)CC1,i,0.7,4.2,2.3,4.1,nt,1.3
COc1cc2[nH]c(=S)nc(NCCC(C)C)c2cc1OC,i,0.72,-1.8,2.7,-0.3,-7%,-1.4
O=C(COc1ccc(Cl)cc1)NCCSCc1cccc(Cl)c1,nt,0.68,nt,2.4,-3.8,-3%,1.1
Cc1cc(C)n2[nH]c(=O)c(N=Nc3ccc(S(N)(=O)=O)cc3)c2n1,i,0.67,-0.1,25*,-2.0,26%,0.7
O=C1CCC(=O)N(c2ccccc2)N1,i,0.7,0.7,0.3,4.5,-8%,-2.4
COc1cccc(-n2cc(CNCc3c(C(=O)N(C)C)nc4ccc(Cl)cn34)cn2)c1,i,0.66,1.2,1.3,-1.1,-6%,-3.3
COc1ccc2c(c1)c(C(=O)N/N=C/c1cccc(O)c1)c(C)n2C,i,nt,-6.1,nt,-5.6,-3%,1.9
Cc1c(C(=O)OCC(=O)Nc2ccc(S(N)(=O)=O)cc2)oc2c1ccc1ccccc12,i,nt,-0.7,nt,2.0,nt,-3.8
COc1ccc2cc(C(=O)NCCO)sc(=O)c2c1OC,nt,0.71,nt,-2.6,-2.6,31%,1.0
CCn1c(N)nc2ccccc21,nt,0.72,nt,-0.5,6.3,5%,-0.4
CCCCOc1ccc(CSc2nc(C)[nH]c2[N+](=O)[O-])cc1[N+](=O)[O-],i,0.62,-2.9,6.4,1.4,nt,1.1
O=C(Nc1ccccc1N1CCCC1)c1ccc(Cl)c(S(=O)(=O)N2CCOCC2)c1,i,0.69,9.1,0.3,nt,nt,1.1
CC1=C(C(=O)Nc2ccccc2C(=O)NC2CCCCC2)SCCO1,i,0.65,-7.7,-0.6,4.2,-19%,-2.6
CC(=O)N(C)c1ccc(OCC(O)Cn2c3ccc(Cl)cc3c3cc(Cl)ccc32)cc1 (stereo unspecified),nt,0.75,nt,3.8,0.2,-4%&7%,1.4
O=C(COC(=O)c1ccccc1)NC1CCCCCC1,i,0.65,-0.3,0.6,nt,-1%,-0.7
CCCn1c(C)cs/c1=N\C(=S)Nc1ccccc1,i,nt,-20,nt,-1.6,nt,-1.1
Cc1ccc(CN2CC(C(=O)NCCC3=CCCCC3)CC2=O)cc1 (stereo unspecified),i,0.66,-12,1.4,nt,2%,0.9
# Carrying on.
SMILES,FGF22 binding,E coli growth,MLL AF4-AF9 inh,UCH37 DUB inh,RanGTP-Impb inh,Vif A3G,HNF4A DNA FP
Cc1[nH]c2ccccc2c1C(=O)Cn1c(=O)oc2ccccc21,i,0.71,8.1,1.8,3.3,96µM*,-0.1
N#Cc1ccc(C(=O)CN2CCN(c3ccccc3)CC2)cc1,i,0.69,1.6,1.0,1.8,nt,1.9
COc1ccc(-c2cc(C(=O)N/N=C/c3sccc3C)c3ccccc3n2)c(OC)c1,nt,nt,nt,nt,0.9,-4%,0.3
CCOC(=O)C1C(=O)NCC2CCCC21 (stereo unspecified),nt,0.74,nt,2.3,0.7,2%,-2.0
CSc1nnc(CSCc2ccc(Cl)cc2Cl)n1-c1ccccc1,nt,0.7,nt,1.2,-1.8,-2%,1.4
CC(C)C(=O)NC(=S)Nc1ccccc1N1CCN(C(=O)c2ccc(Cl)cc2)CC1,i,0.71,-2.4,0.6,3.8,24%,-6.6
Cc1ccc(S(=O)(=O)Cc2ccc(C(=O)N3CCC(C)CC3)cc2)cc1,i,0.64,0.4,1.5,1.3,nt,-0.8
CC(Oc1cc(F)ccc1[N+](=O)[O-])C(=O)Nc1ccc(S(=O)(=O)N2CCCC2)cc1 (stereo unspecified),i,0.68,2.9,2.6,-3.1,5%,-1.1
O=C(c1ccccc1)c1ccc(N2CCCC2)cc1,nt,0.72,nt,-3.0,-1.6,10%,5.3
O=C(NC1CCN(S(=O)(=O)c2ccccc2F)CC1)c1ccco1,i,0.66,-1.0,5.3,-2.9,nt,0.7
CCN(CC)C(=O)Cn1c(C)c(/C=C/c2cc[n+](C)cc2)c2ccccc21,i,nt,2.3,nt,-154,0%,158
O=C(NC1CCCC1)C(c1ccncc1)N(C(=O)c1csnn1)C1CCCC1 (stereo unspecified),i,0.65,-1.8,1.9,-1.4,-12%,-2.8
O=C1c2ccccc2C(=O)N1CCc1nc(-c2ccccn2)no1,nt,0.64,nt,-1.2,?,-1%,11
Cc1nc(SCC(=O)NCC2COc3ccccc3O2)c2c(C)c(C)sc2n1 (stereo unspecified),i,0.66,-8.9,2.8,nt,-14%,0.3
Cc1ccc(-c2nc3sc(C#N)c(N)n3c(=O)c2C#N)cc1,i,0.66,1.7,8.6,-56,-16%,30
CCC(Oc1ccccc1)C(=O)Nc1ccc(C)c(S(=O)(=O)N2CCOCC2)c1 (stereo unspecified),i,0.7,-1.1,2.1,-3.5,-10%,0.6
COc1ccc(CNC(=O)Oc2ccccc2)cc1Cl,nt,0.7,nt,6.9,0.2,-2%,-8.2
Cc1cccc2cc(COC(=O)C(C)C)c(=O)[nH]c12,nt,0.74,nt,-0.5,2.6,20%,3.1
O=C1OCCC1Sc1ncnc2sccc12 (stereo unspecified),nt,0.75,nt,-0.4,-1.4,1%,0.7
COC(=O)C(NC(=O)c1ccccc1C(=O)O)c1ccc2ccccc2c1 (stereo unspecified),i,0.71,1.0,5.3,3.0,nt,-0.9
O=[N+]([O-])c1ccccc1/C=N/Nc1nccnc1Cl,nt,nt,nt,nt,-0.5,3%,-0.3
O=S(=O)(Nc1cccc(-c2ccc3nncn3n2)c1)c1cc(F)ccc1F,i,0.69,-0.3,2.8,1.9,1%,0.7
O=C(c1c[nH]c(C(=O)C(Cl)(Cl)Cl)c1)c1c(F)cccc1F,i,0.72,1.0,4.2,3.7,0%,-2.6
NC(=O)c1ccc(N=C2C(=O)Nc3ccc([N+](=O)[O-])cc32)cc1,i,0.58,-16,84*,2.7,9%,-2.4
O=C(c1ccc(C(F)(F)F)cc1)N1CCC(=O)N(C(COCc2ccc(C(F)(F)F)cc2)Cc2ccccc2)CC1 (stereo unspecified),i,0.8,-7.0,2.5,-1.6,1%,1.2
# Remaining list, next part.
SMILES,FGF22 binding,E coli growth,MLL AF4-AF9 inh,UCH37 DUB inh,RanGTP-Impb inh,Vif A3G,HNF4A DNA FP
COc1ccccc1NC(=S)N1CC(C)OC(C)C1 (stereo unspecified),i,0.71,-3.1,2.7,-6.7,22%,0.4
CCOC(=O)C1=C[C@@H](C2CCCCC2)N(S(=O)(=O)c2ccc([N+](=O)[O-])cc2)[C@H]1c1ccccc1,i,nt,-0.1,nt,nt,nt,3.4
CS/C(=N\S(=O)(=O)c1ccc(Cl)cc1)c1ccccc1,i,nt,1.0,nt,2.5,-2%,0.1
Cc1cc(C)c(S(=O)(=O)Nc2nnc(CC(C)C)s2)c(C)c1,i,0.71,-3.1,5.3,6.7,5%,-1.0
NC1=C(O)C(=O)C(c2ccccc2)O1 (stereo unspecified),i,0.68,0.1,3.9,7.3,22%,-1.3
CCOC(=O)c1cnc(-n2nc(C)cc2C)nc1N1CCOCC1,nt,0.7,nt,2.5,nt,3%,-2.6
CC(=O)Nc1c(-c2ccc(F)cc2)nc2ccccn12,i,0.67,-4.4,-21,0.8,-1%,-2.8
CC1(C)C(=O)Nc2ccccc2N1C(=O)COC(=O)c1cccs1,i,0.7,-3.5,0.1,nt,0%,-4.6
Cc1ccsc1CN(C)CC(=O)NCC(=O)Nc1ccc(F)cc1,i,0.69,-1.0,1.5,nt,4%,2.0
O=c1[nH]c2ccc(S(=O)(=O)Nc3ccc(Cl)cc3)cc2o1,i,0.61,-2.6,5.0,2.6,nt,0.1
CCOC(=O)C1=C(N)n2c(s/c(=C\c3ccncc3)c2=O)=C(C(=O)OCC)C1c1ccncc1 (stereo unspecified),i,nt,0.3,nt,2.5,-13%,-0.5
O=C(NNC(=O)c1c(F)cccc1F)c1ccccc1OC(F)(F)F,i,0.66,3.9,0.9,-0.4,-10%,-4.2
NC(=O)C1CCN(c2oc(/C=C/c3ccccc3)nc2S(=O)(=O)c2ccccc2)CC1,i,0.64,5.1,-286,1.1,21%,2.0
O=C(CSc1nnc(-c2ccccn2)n1Cc1ccco1)c1ccc(-c2ccccc2)cc1,nt,0.71,nt,3.6,-2.6,2%,-1.5
CC(C)N1CCN(c2ccc(S(=O)(=O)N3CCOCC3)cn2)CC1,i,0.73,0.6,-3.6,nt,nt,0.9
O=C(O)CC(NC(=O)c1sc2ccccc2c1Cl)c1ccc(OC2CCCC2)cc1 (stereo unspecified),i,0.69,-3.5,1.3,?,nt,-1.1
CC1CCCCC1NC(=O)COC(=O)c1ccc2ccccc2n1 (stereo unspecified),i,0.72,1.8,-0.2,?,-4%,-0.3
COc1ccc(C(c2nnnn2CC2CCCO2)N2CCC(C(N)=O)CC2)cc1 (stereo unspecified),nt,0.7,nt,1.6,4.6,18%,1.4
O=C(O)CC(C(=O)O)n1nc(-c2ccccc2)cc1-c1ccccc1 (stereo unspecified),nt,0.74,nt,-0.4,6.0,3%,-5.6
COc1ccc(-c2csc(C(C)(O)c3cccc(F)c3)n2)cc1OC (stereo unspecified),i,nt,-4.1,nt,nt,nt,-1.8
O=C(O)c1ccccc1NN=C1CCCCC1,nt,0.67,nt,0.3,?,nt,2.8
CN1CCN(C(=O)C2=C[C@@H](c3csc4ccccc34)C[C@@H](OCc3ccc(CO)cc3)O2)CC1,i,nt,8.4,nt,-2.7,nt,5.2
Cc1csc(NC(=O)Cc2c(F)cccc2Cl)n1,i,nt,-12,nt,-0.2,2%,-2.4
O=S(=O)(c1ccc(F)cc1)N1CCN(C(=S)NC2CC2)CC1,i,0.7,-1.7,5.7,nt,-14%,1.8
Cc1cc(C)c(CN2CCN(CCCn3cnc(C(=O)Nc4ccc(C)c(C)c4)n3)CC2)c(C)c1,i,nt,11,nt,nt,nt,2.1
O=C(CC(=O)Nc1ccccc1C(=O)O)NNC(=O)Cc1ccccc1,i,0.67,-4.3,-1.6,-3.9,17%,0.1
NS(=O)(=O)c1ccc(CCNC(=O)C2CCN(S(=O)(=O)c3ccccc3)CC2)cc1,i,0.73,-1.0,4.0,-2.4,-3%,-3.0

# Given as tab-separated lines: part of the list above
smiles	FGF22 binding	E coli growth	MLL AF4-AF9 inh	UCH37 DUB inh	RanGTP-Impb inh	Vif A3G	HNF4A DNA FP
Cc1ccsc1CN(C)CC(=O)NCC(=O)Nc1ccc(F)cc1	i	0.69	-1.0	1.5	nt	4%	2.0
COc1ccc(C(c2nnnn2CC2CCCO2)N2CCC(C(N)=O)CC2)cc1 (stereo unspecified)	nt	0.7	nt	1.6	4.6	18%	1.4
